PrP UTR inh: inhibition of PrP 5' UTR reporter expression | cell-based PrP 5' UTR mRNA reporter, plate reader | inhibition, % (concentration not given with the values) | 0.35% of 340,000 active;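 active means every replicate at 50% or more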;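 further: 0 = median of the neutral control wells; tested in H4 reporter cells; numbers are from one replicate; inactives centre near -14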
Bead autofluor: compound fluorescence in toxin protease inhibitor counterscreen | compound autofluorescence counterscreen, microsphere flow cytometry; hits give high values | fluorescence intensity (no concentration beside the values) | AID 624483 | 3.1% of 360,000 active;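 active means at least 3 SD above the mean of all compounds, about 16000 in these data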;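 further: 100 nL of 1 mM stock went into each well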
* hit, by the source's call. These rows are one share of the data; count on the stated rates, not on these rows.

SMILES	PrP UTR inh	Bead autofluor
C[C@H](CO)N1C[C@H](C)[C@@H](CN(C)C(=O)Nc2ccccc2)Oc2ccc(NC(=O)Nc3ccc(C(F)(F)F)cc3)cc2C1=O	-22	4357
COC/C=C/C1=CC(=O)C[C@H](c2ccc3c(c2)OCO3)C1	6	2856
C[C@@H]1C(=O)O[C@H]2CC34[C@H]5C[C@@H](C(C)(C)C)[C@]36[C@@H](OC(=O)[C@@H]6O)O[C@@]4(C(=O)O5)[C@]21O (some centres undefined)	-1	7074
Oc1ccc2ccc(Cl)cc2c1	-22	2987
Cc1cn(CC(=O)NCc2ccccn2)c(=O)[nH]c1=O	-12	3625
Cn1cnc([N+](=O)[O-])c1Sc1nc(N)nc2c1ncn2C1OC(CO)C(O)C1O (centres undefined)	3	3748
COc1c(C=O)c2c(c(OC)c1OC)-c1ccc(OC)c(=O)cc1C(NC(C)=O)CC2 (centres undefined)	58*	2900
Cc1c2ccccc2c(C)c2c1ccc1ccccc12	-20	5343
CCCCCCCCNCCS(=O)(=O)NCc1ccc(OC)cc1	-11	3615
COc1ccc(-c2ccc3c(c2)[C@@H]2C[C@H](N(C)C(=O)Nc4ccccc4)[C@H]([C@H](C)O)C(=O)N2CC3)cc1	-16	4053
O=C(NCCCl)Nc1ncn[nH]1	6	4007
COc1cccc(C2C(C(=O)c3ccco3)=C(O)C(=O)N2CCCN2CCOCC2)c1OC (centres undefined)	7	3454
CCCCCCCCNCCS(=O)(=O)NCc1ccccc1	-19	3340
COc1ccc([C@H]2CC(=O)C=C(c3c(OC)cccc3OC)C2)cc1	-35	3094
Cc1[nH]c2ccccc2c1/C=N\NC(=O)c1ccco1	3	4534
COc1cccc(CN(C)CCCn2cnc(C(=O)Nc3ccc(C)c(C)c3)n2)c1	-10	3609
O=C(Nc1ccc2c(c1)[nH]c(=O)c1ccccc12)C(F)(F)F	-29	3356
Cc1c(F)cccc1NS(=O)(=O)c1ccc(N2CCCC2=O)cc1	-7	2725
C[C@H](CO)N1C[C@H](C)[C@@H](CN(C)CC2CCCCC2)Oc2c(NS(=O)(=O)c3cccs3)cccc2C1=O	-18	4204
CC[C@H](C)[C@@H](C(=O)NCCCCCCCCCCC(=O)N1CCN(C(=O)OC(C)(C)C)CC1)n1cc(CCCCCNC(=O)OC(C)(C)C)nn1	2	3593
CCOC(=O)[C@H]1[C@H]2COc3ccccc3[C@@H]2N2C(=O)CNC(=O)[C@@]12C	-10	2778
C1=C[C@@H]2CCN(Cc3ccccc3)Cc3cccc(c32)C1	-3	4976
O=C(CCc1ccccc1)N/N=C/c1cccc([N+](=O)[O-])c1	-11	4795
CCOC(=O)[C@H](C)N1[C@H](C)[C@H](c2ccccc2)Oc2ccc(Cl)cc2S1(=O)=O	-12	3539
O=[N+]([O-])c1ccc(S(=O)Cc2ccccc2)c([N+](=O)[O-])c1 (centres undefined)	-31	3711

Among those listed so far, 3 have fluorine.
SMILES	PrP UTR inh	Bead autofluor
C[C@H](CO)N1C[C@H](C)[C@@H](CN(C)C(=O)Nc2ccccc2)Oc2ccc(NC(=O)Nc3ccc(C(F)(F)F)cc3)cc2C1=O	-22	4357
O=C(Nc1ccc2c(c1)[nH]c(=O)c1ccccc12)C(F)(F)F	-29	3356
Cc1c(F)cccc1NS(=O)(=O)c1ccc(N2CCCC2=O)cc1	-7	2725

Continuation.
SMILES	PrP UTR inh	Bead autofluor
COc1ccc2c(c1)OC[C@H]1[C@H]2N2C(=O)[C@H](C)NC(=O)[C@@]2(C)[C@H]1c1ccccc1	-17	4105
CC(=O)N/C(=C/c1ccccc1)c1ccccc1	-16	3739
CC(=O)Oc1ccc(C#C/C=C2\c3ccccc3C(=O)N2c2ccccc2)cc1	-16	4809
Cc1nc2ccc(-c3nc4ccccc4[nH]3)cc2[nH]1	-105	2187
O=C(Cn1cc(COc2cc(F)cc(F)c2)nn1)c1ccc(O)cc1	-16	4182
O=C(COC(=O)c1ccc(F)c(S(=O)(=O)N2CCOCC2)c1)NCCc1ccc(F)cc1	-8	2904
C[C@H]1CN=C(Nc2ccccc2)N1CCc1ccc(F)cc1	-6	2950
COc1cc(C2CC(=O)Oc3cc(OC)c(OC)c(OC)c32)cc(OC)c1OC (centres undefined)	-14	3176
O=C(C[C@@H]1C/C=C\CC[C@@H](Cc2ccc(F)cc2)C(=O)OC[C@@H]2CCCN2C1=O)NCCO	-23	3595
COc1ccc(S(=O)(=O)N(C)C[C@H]2Oc3ccc(NC(=O)Nc4ccc5c(c4)OCO5)cc3CC(=O)N([C@@H](C)CO)C[C@@H]2C)cc1	-26	4201
C/C=C(/CCC1NCCc2c1[nH]c1ccccc21)[Si](C)(C)C (centres undefined)	-17	6313
CC(C)[C@H]1C(=O)N2CCC[C@H]2[C@]2(O)O[C@](NC(=O)[C@@H]3C=C4c5cccc6[nH]cc(c56)C[C@H]4N(C)C3)(C(C)C)C(=O)N12	2	4325
CC[C@]1(c2ccccc2C)ON(c2ccccc2C(F)(F)F)C1=O	-15	3919
CCC1([N+](=O)[O-])COP(=O)(NCc2cccnc2)OC1 (centres undefined)	-14	4089
Nc1ccc(N=Nc2ccc(O)cc2)c(N)n1	-79	3767
O=S(=O)(c1ccc(N=C2NN=C(c3cc(F)ccc3F)CS2)cc1)N1CCOCC1	0	3512
C[C@@H]1CN([C@@H](C)CO)C(=O)Cc2cc(NC(=O)Nc3ccc(F)cc3)ccc2O[C@@H]1CN(C)Cc1ccc(Cl)c(Cl)c1	-7	3535
Cc1c(NC(=O)CCc2ccc(S(=O)(=O)N3CCOCC3)cc2)c(=O)n(-c2ccccc2)n1C	-2	4044
C=CCCC(=O)N1C[C@H]2CON(C)[C@H]2C[C@H]1c1ccccc1Br	-22	3633
COc1ccc(OC)c(/C=N\NC(=O)c2ccc(-c3ccccc3)cc2)c1	-55	4566
Cc1c(C(=O)Nc2nccs2)oc2ccc(Br)cc12	-114	2983
Cc1ccc(C(C)C)c(O)c1C(=O)O	-18	6914
O=S(=O)(c1ccc(NC(=S)N/N=C/c2c3ccccc3cc3ccccc23)cc1)N1CCOCC1	-23	3214
O=C1/C(=C\c2ccc([N+](=O)[O-])cc2)CS(=O)(=O)C/C1=C/c1ccc([N+](=O)[O-])cc1	71*	3677
COc1cc(C2c3cc4c(cc3OC(NNC(N)=O)C2C)OCO4)cc(OC)c1OC (centres undefined)	52*	2779

Going on with the list.
SMILES	PrP UTR inh	Bead autofluor
OCC[C@H]1C[C@@H](O)[C@H](O)[C@]2(CCCc3ccccc3O2)O1	-14	4043
COc1ccc(C2C(C#N)=C(N)Oc3cc(O)ccc32)cc1 (centres undefined)	-30	3451
CC[C@H](C)[C@H]1CNC(=S)N1CC1CCN(CCCC2CCCC2)CC1	-12	3546
Cc1cccc(-c2ccc3c(c2)C2CC3CCN2Cc2ccc3c(c2)OCO3)c1 (centres undefined)	-10	3826
COc1nc(=O)n(C2CCCO2)cc1C (centres undefined)	23	2907
O=C(Nc1ccn(CCCN2CCN(c3ccccn3)CC2)c(=O)n1)OCc1ccccc1	-19	3464
COc1ccc(NC(=O)C(OC(=O)Cn2cnc3c2c(=O)n(C)c(=O)n3C)c2ccccc2)cc1Cl (centres undefined)	-3	4155
CC(C)(O)/C=C/C(=O)[C@](C)(O)C1[C@H](O)C[C@@]2(C)C3CC=C4C(C[C@H](O)[C@@H](O)C4(C)C)[C@]3(C)C(=O)C[C@]12C (some centres undefined)	65*	3517
COCCNC(=O)[C@H]1C[C@@H]1[C@H](NP(=O)(c1ccccc1)c1ccccc1)c1ccccc1	0	3848
CC(O)(c1ccccc1)c1ccc2ccccc2n1 (centres undefined)	-16	4222
CCN1c2ccccc2N(C)C1(C)c1ccccc1 (centres undefined)	-24	8530
CC1=NN(c2nc(N)nc(/C(C#N)=C/c3ccc([N+](=O)[O-])o3)n2)C(C)(C)C1	-22	3300
C=CC[C@@H](Cc1ccc(F)cc1)C(=O)OC[C@@H]1CCCN1C(=O)[C@H](CC=C)CC(=O)N(CCO)Cc1ccccc1	-18	4058
O=c1[nH]c2cc(F)ccc2c2ccc(F)cc12	21	3615
O=C(C[C@H]1C/C=C/CC[C@@H](Cc2ccc(F)cc2)C(=O)O[C@@H](c2ccccc2)CNC1=O)NCCO	-10	4108
C#CCOCCOCCOCCNc1nc(N2CCN(C(=O)CCCCCCCCCCNC(=O)Cn3cc(C[C@@H](C)O)nn3)CC2)nc(N2CCN(C(=O)CCCCCCCCCCNC(=O)[C@@H]([C@H](C)O)n3cc(C)nn3)CC2)n1	-16	3916
ClC1=C(Cl)C2(Cl)C3C(Cl)C=CC3C1(Cl)C2(Cl)Cl (centres undefined)	-20	5212
Cc1ccc(CCNC(=O)C2CCCN(S(=O)(=O)c3c(C)noc3/C=C/N(C)C)C2)cc1 (centres undefined)	-16	5875
NC(=O)SC/C(=N\S(=O)(=O)c1ccccc1)Nc1ccccc1	-21	10643
N#CC1(Nc2ccc(-c3ccc(NC4(C#N)CCCC4)cc3)cc2)CCCC1	-27	4182
CC(C)(C)OC(=O)[C@H](Cc1ccccc1)NC(=O)c1nc[nH]c1C(=O)N1CCNCC1	-20	4025
COc1ccc([C@H]2CC(=O)C=C(c3cc(C)ccc3F)C2)cc1	-11	3923
O=S(=O)(CCNCc1ccccc1)NC1CCCCC1	-9	3839
OCC[C@H]1C[C@@H](O)[C@H](O)[C@@]2(OCc3ccccc32)O1	8	2980
CC(C)(C)OC(=O)C[C@@H]1C/C=C\C[C@@H](CC(=O)N[C@H](CO)Cc2ccccc2)C(=O)N2CCC[C@@H]2COC1=O	-25	3621

(further entries)
SMILES	PrP UTR inh	Bead autofluor
O=C(NCCCc1ccccc1)c1cccc(NC(=O)C2CC2)c1	-29	3964
CCN(CC)CCCNc1nc2ccccc2c2[nH]c3ccc(OC)cc3c12	12	4692
COc1ccc(C(C#N)=C2C=CC(=NO)C(C)=C2Cl)cc1	71*	4028
CCCC(/C=C/c1ccc(OC(C)=O)cc1)=C1/c2ccccc2C(=O)N1c1ccccc1	-4	3952
CCN1C[C@@H]2[C@@H]3C(=O)N(Cc4ccccc4)C(=O)[C@@H]3[C@](C)(C1=O)N2C(=O)c1ccc(Cl)c(Cl)c1	-5	3860
CCOc1ccc(/C=N/NC(=O)c2ccccc2O)cc1CN1CC2CC(C1)c1cccc(=O)n1C2 (centres undefined)	-18	5332
Cn1c(=O)c2[nH]c(CSCc3ccccc3)nc2n(C)c1=O	-9	4171
NCCCCCc1cn([C@@H](CCC(=O)O)C(=O)NCCCCCCCCCCC(=O)N2CCNCC2)nn1	-14	3947
CC(=O)C1(C)CCC2C3C=C(C)C4=CC(=O)CCC4(C)C3CCC21C (centres undefined)	-18	2917
COc1cc(C(=C(CC(=O)O)C(=O)O)c2ccc3c(c2)OCO3)cc(OC)c1OC	-16	3107
COC(=O)C1=C(c2ccc(F)cc2F)C[C@@H]2CC[C@H]1N2C	-2	3667
CC(=Nc1ccccc1)C1=C(O)C(CC(C)C)NC1=O (centres undefined)	-8	3063
Cc1nc2cc(-c3ccccc3)nn2c(N)c1-c1ccccc1	12	3644
O=C(O)C1(Nc2ccc([N+](=O)[O-])cc2[N+](=O)[O-])CCCC1	33	3092
Cc1nc(N)nc(N)c1-c1ccc(Cl)c(Cl)c1	58*	10324
CCCCCCCCNCCS(=O)(=O)NC1CCCCC1	-13	3867
Cc1ccc(S(=O)(=O)OCC(=O)Nc2ccc(C(=O)O)c(O)c2)cc1	-17	3497
O=C(NC1CCN(Cc2ccccc2)CC1)c1ccccc1NS(=O)(=O)c1ccc(F)c(F)c1	-26	3575
C#CCOCCOCCOCCNc1nc(N2CCN(C(=O)C([C@@H](C)O)n3cc([C@@H](N)CCCCN)nn3)CC2)nc(N2CCN(C(=O)[C@H](CCCCN)n3cc([C@@H](N)CC(N)=O)nn3)CC2)n1 (some centres undefined)	-15	4094
Cc1ccc(NC(=O)CCCOc2ccccc2)cc1S(=O)(=O)N1CCOCC1	1	3649
COc1ccccc1C=NN=Cc1ccccc1O	30	3402
c1c[nH]c(CN2CCN(Cc3ncc[nH]3)CC2)n1	-16	3804
O=C(O)Cc1cccc(=O)c(O)c1C(=O)O	8	3081
CN(C)CC1CCC/C(=C\c2ccc(OC(=O)/C=C/c3ccccc3)cc2)C1=O (centres undefined)	-24	6005
C[C@H]1CCC(=O)N(CCSc2ccc(Br)cc2)CC1	-20	3987
COC(=O)C1CCC(=O)N1C(c1ccc(OC)cc1)c1cc(OC)c(OC)c(OC)c1 (centres undefined)	56*	3582
O=c1[nH]cnc2c1ncn2-c1ccc(N(CCO)CCO)cc1	-7	2830
Cc1noc(C)c1NC(=O)N(C)C[C@H]1Oc2ccc(NC(=O)NC(C)C)cc2C(=O)N([C@H](C)CO)C[C@@H]1C	-18	3483

Filtered by structure: the entries above with an NH in an aromatic ring
SMILES	PrP UTR inh	Bead autofluor
Cc1cn(CC(=O)NCc2ccccn2)c(=O)[nH]c1=O	-12	3625
O=C(NCCCl)Nc1ncn[nH]1	6	4007
Cc1[nH]c2ccccc2c1/C=N\NC(=O)c1ccco1	3	4534
O=C(Nc1ccc2c(c1)[nH]c(=O)c1ccccc12)C(F)(F)F	-29	3356
Cc1nc2ccc(-c3nc4ccccc4[nH]3)cc2[nH]1	-105	2187
C/C=C(/CCC1NCCc2c1[nH]c1ccccc21)[Si](C)(C)C (centres undefined)	-17	6313
CC(C)[C@H]1C(=O)N2CCC[C@H]2[C@]2(O)O[C@](NC(=O)[C@@H]3C=C4c5cccc6[nH]cc(c56)C[C@H]4N(C)C3)(C(C)C)C(=O)N12	2	4325
O=c1[nH]c2cc(F)ccc2c2ccc(F)cc12	21	3615
CC(C)(C)OC(=O)[C@H](Cc1ccccc1)NC(=O)c1nc[nH]c1C(=O)N1CCNCC1	-20	4025
CCN(CC)CCCNc1nc2ccccc2c2[nH]c3ccc(OC)cc3c12	12	4692
Cn1c(=O)c2[nH]c(CSCc3ccccc3)nc2n(C)c1=O	-9	4171
c1c[nH]c(CN2CCN(Cc3ncc[nH]3)CC2)n1	-16	3804
O=c1[nH]cnc2c1ncn2-c1ccc(N(CCO)CCO)cc1	-7	2830

Compound activity from PubChem BioAssay.
